# GLA inh pH 4.5: inhibitors of human alpha-galactosidase A at pH 4.5 | 230,000 tested, under 10 active | purified enzyme, 4-MU-alpha-Gal fluorescence, pH 4.5 | P06280 | activity change, negative = inhibition, % at 105 µM; inconclusive = small, poorly fitted or top-dose-only inhibition, or a rising curve; inactive = flat fitted curve, though single readings scatter; no compound was filed as active;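 also: 0% = full activity with enzyme and -100% = basal without enzyme; dose as in the result columns while the protocol names 77 µM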
# Target sequence (P06280 whole entry, looked up): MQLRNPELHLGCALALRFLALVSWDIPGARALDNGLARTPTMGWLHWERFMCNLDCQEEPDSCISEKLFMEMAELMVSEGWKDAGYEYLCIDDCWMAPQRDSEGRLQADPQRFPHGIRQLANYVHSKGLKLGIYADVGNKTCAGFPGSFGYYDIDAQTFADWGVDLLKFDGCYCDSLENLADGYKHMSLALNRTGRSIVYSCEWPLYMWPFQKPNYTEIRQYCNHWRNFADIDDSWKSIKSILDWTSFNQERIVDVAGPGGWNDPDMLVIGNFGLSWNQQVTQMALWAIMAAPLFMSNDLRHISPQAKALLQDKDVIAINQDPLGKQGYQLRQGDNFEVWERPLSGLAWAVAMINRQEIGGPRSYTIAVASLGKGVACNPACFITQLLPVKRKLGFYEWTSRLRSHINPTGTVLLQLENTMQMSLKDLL
# Rango-impB inh: Rango-importin beta binding inhibition | Q14974 | Rango CFP/YFP FRET sensor + importin beta, 45 min | Potency, µM (doses to about 92.2 µM), without a hit: top-dose inhibition of complex formation | 0.031% of 340,000 active | AID 540263; active = rising FRET ratio curve, often small or poorly fitted; inconclusive = mostly compound fluorescence or quenching in the first reads; inactive = flat curves in all reads;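 also: potency is read from the fitted curve at half-maximal effect; 0% = DMSO wells and 100% = buffer wells lacking importin beta; nearly all actives have a fitted effect of over 15% in size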
#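 FRET biosensor (snurportin 1 IBB flanked by EYFP and cerulean), 50 nM, with compound 5 min, then 0.125 microM importin beta in PBS, 1 mM DTT, 0.02% Tween-20, 0.1% BSA. CFP/YFP ratio read after 45 min at room temperature; pre-read flags interference.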
# miR-21 FLuc: miR-21 reporter, rising signal | Potency, µM (top dose mostly 38.3 µM), for the others: at the highest dose reporter change, positive = more light | HeLa miR-21 FLuc reporter, luciferase, 48 h | AID 2288 | 340,000 tested, under 10 active; active = well fitted rising curve with a large enough effect; inconclusive = small, poorly fitted or top-dose-only effect; inactive = no such curve, though single readings can be large or run the other way;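 also: % of control where 0% means no effect; miR-21 action dims this reporter so a rising signal means less miR-21 action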
#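 HeLa miR-21-FLuc reporter line, endogenous miR-21; 2000 cells/well in DMEM/10% FBS; compound titration up to ~40uM final, 48 h, 37 degree Celsius; luciferase detection reagent, 15 min lysis, CCD luminescence.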
# Rango dissoc inh: inhibition of RanGTP-driven Rango-importin beta dissociation; AID 540253; 0.071% of 340,000 active; Potency, µM (top dose mostly 46.1 µM), inactives show top-dose activity change, negative = inhibition; Biochemical FRET Rango-importin beta, RanGTP-induced dissociation; O95149+P62826; active means falling FRET ratio curve, often poorly fitted, with flat reads before Ran was added; inconclusive means other falling curves, or compound fluorescence or quenching; inactive means flat or rising ratio curve;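 also: potency is read from the fitted curve at half-maximal effect; % of control where 0% means no effect; nearly all actives have a fitted effect of over 45% in size; -100% = wells without RanGTP and RCC1; the record marks most hits as doubtful in a second field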
#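 Two FRET readings bracket the reaction: one 5 min after compound meets Rango–importin beta, another 45 min after RanGTP-RCC1 (0.6 uM Ran, 0.2 uM RCC1, 2 mM GTP) is added. Only the second defines inhibition.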
# An asterisk follows results filed as active; ? = inconclusive; . = not tested or not shown; & = joins results of further samples. The list is partial; rates above refer to the full screens.
SMILES,GLA inh pH 4.5,Rango-impB inh,miR-21 FLuc,Rango dissoc inh
O=C(N[C@@H](Cc1ccccc1)C(=O)N[C@@H](Cc1ccccc1)C(=O)O)OCc1ccccc1,.,3.1%,.,1%
COc1ccc(CCNC(=O)Cn2c(=O)n(-c3ccc(F)cc3)c(=O)c3sccc32)cc1OC,0,-2.5%,7%,14%
O=C(CO/N=C/c1ccccc1)N1c2ccccc2Oc2ccccc21,-23,-1.1%,-17%,-4%
O=C(NNC(=O)c1ccccc1F)c1ccc(S(=O)(=O)N2CCCCC2)cc1,.,-1.8%,.,0%
Cc1nn(-c2ccccc2)nc1C(=O)c1c(C)[nH]n(-c2ccccc2)c1=O,0,-4.2%,-1%,-8%
CC1CCCC(C)N1C(=O)CSc1nnc(NC(=O)Cc2cccs2)s1 (stereo not drawn),8,2.2%,-10%,-2%
CC(=O)Oc1ccccc1C(=O)Nc1ccccc1C(=O)N1CCCCC1,.,-1.2%,0%,-10%
CSc1cc(-c2ccccc2)n(Cc2ccc(Cl)cc2Cl)c(=O)c1C#N,-5,0.2%,1%,0%
CCOc1ccc(Br)cc1S(=O)(=O)Nc1cccnc1,.,-1.6%,-2%,0%
CN(C)S(=O)(=O)c1ccc(Cl)c(NC(=O)CSc2nnnn2-c2ccc(O)cc2)c1,4,-0.2%,3%,2%
O=C(CCN1C(=O)c2ccccc2C1=O)Nn1cnnc1,-11,-4.3%,1%,0%
COc1cc(OC)c(C(=O)NC2CC(C)(C)NC(C)(C)C2)cc1OC,0,-5.5%,-1%,-3%
CCCNS(=O)(=O)c1ccc(CCC(=O)Nc2ccc3c(c2)OCCO3)cc1,-7,?,-1%,-18%
O=C(Cn1c(=O)cnc2ccccc21)N1CCN(S(=O)(=O)c2cccc([N+](=O)[O-])c2)CC1,.,2.3%,.,-13%
COc1cccc(COC(=O)c2ccc(S(=O)(=O)N3CCC(C)CC3)cc2)c1OC,.,-0.7%,.,10%
O=C(NN1CCOCC1)c1ccc([N+](=O)[O-])cc1,.,-0.4%,-7%,0%
Cc1ccccc1-n1c(SCC(=O)c2c(N)n(C)c(=O)n(C)c2=O)nnc1-c1cccnc1,5,1.6%,0%,1%
Cc1cc(C)c(C(=O)COC(=O)c2ccc(NC(=O)CC#N)cc2)cc1C,0,-2.1%,-22%,-20%
O=[N+]([O-])c1ccc(-c2nnc(-c3ccccc3)c(N3CCOCC3)n2)cc1,-7,0.7%,-12%,-2%
C=C1CN(CC(=O)OC)S(=O)(=O)c2ccccc21,2,-5.5%,1%,-1%
COc1cc(/C=N/N=C/c2c[nH]c(=O)c(C#N)c2Nc2ccccc2)ccc1O,5,-6.6%,0%,4%
CCOC(=O)c1nc2sc3c(c2c(=O)[nH]1)CCC(C)C3 (stereo not drawn),?,1.1%,-1%,-28%
COCCn1c(-c2ccccc2)nc2ccccc21,2,-2.7%,-37%,13%
O=C(O)c1cc2n(n1)C(C(F)(F)F)CC(c1ccccc1)N2 (stereo not drawn),11,-2.5%,-2%,-1%
CCOC(=O)[C@@H]1[C@H]2COc3ccc(Br)cc3[C@@H]2N2C(=O)N(c3ccc(C(F)(F)F)cc3)C(=O)[C@@]12C,.,-2.7%,9%,4%
CCN(CC)c1ccc2c(cc1=O)[C@@H](NC)CCc1cc(OC)c(OC)c(OC)c1-2,.,?,21%,8%
Cc1[nH][nH]c(=O)c1C(c1ccc(-c2ccc(Cl)c(Cl)c2)o1)c1c(C)[nH][nH]c1=O,-2,2.7%,9%,-3%
O=C(NCCCN1CCCC1)c1ccc2c(c1)N(Cc1ccccc1F)C(=O)c1ccccc1S2=O (stereo not drawn),.,0.8%,-7%,-8%
COc1cccc(C2C(C(=O)c3ccc(C)o3)=C(O)C(=O)N2c2cc(C)on2)c1 (stereo not drawn),.,?,-2%,?
COc1c(OC(C)=O)ccc(/C=C/c2ccc3cccc(OCc4ccccc4)c3n2)c1[N+](=O)[O-],0,2.7%,-2%,10%
COC(=O)/C=C1/SC(=Nc2ccc(Cl)c(Cl)c2)NC1=O,1,-2.0%,1%,4%
O=C(C[n+]1cc(-c2ccc(Cl)c(Cl)c2)n2c1CCC2)c1cccs1,-25,2.5%,20%,0%
O=C(CSc1nnc(-c2csc3c2CCCC3)o1)Nc1ccccc1,-6,-1.6%,-2%,2%
CC1CCCCC1NC(=O)c1nnc(Cc2ccc(Cl)cc2)o1 (stereo not drawn),3,-0.1%,-16%,-8%
COc1cc(OC)cc(C(=O)Nc2nc(CC(=O)NCc3ccccc3OC)cs2)c1,.,2.4%,.,-10%
O=C(O)CCc1cc(I)c(Oc2ccc(O)c(I)c2)c(I)c1,-1,.,0%,.
CCn1c2ccccc2c2cc(NC(=O)Cc3ccc(S(=O)(=O)N4CCOCC4)s3)ccc21,-5,1.6%,-2%,19%
CCOC(=O)CSc1ccc(S(=O)(=O)N2CCC(C)CC2)cc1[N+](=O)[O-],4,-7.9%,-3%,-19%
CN1CCN(C(=O)c2ccc(CS(=O)Cc3ccc(Cl)cc3)o2)CC1 (stereo not drawn),.,5.9%,-1%,-13%
Cc1ccccc1OCC(O)CN1C(=O)c2ccccc2C1=O (stereo not drawn),.,0.6%,-16%,-1%
COc1ccc(-n2cnc3c(sc4nccc(N(C)C)c43)c2=O)cc1,-3,-6.4%,9%,18%
CCNCC(=O)N1c2ccccc2CCc2ccc(NC(C)=O)cc21,-1,5.3%,-7%,3%
Cc1c(C(=O)N/N=C/c2ccoc2)cccc1[N+](=O)[O-],.,2.0%,1%,-5%
O=C(O)CCCC(=O)NCCc1ccncc1,-7,-5.5%,-3%,7%
O=C(Oc1ccc(Cl)c2cccnc12)C12CC3CC(CC(C3)C1)C2,-8,-2.1%,-4%,17%
CC(C)c1ccc(C2OCCCO2)cc1,.,2.2%,.,4%
COc1c(Br)cc([N+](=O)[O-])c(OC)c1C(=O)NC(=O)Nc1nc(C)cc(C)n1,-10,-1.4%,4%,15%
Cc1ccc(S(=O)(=O)N2CCOCC2)cc1C(=O)N1CC(C)OC(C)C1 (stereo not drawn),.,6.1%,.,-14%
CN(c1ccccc1)S(=O)(=O)c1ccc(C(=O)OCC(=O)NC(N)=O)cc1,1,-0.1%,2%,6%
Cc1ccc2c(c1)COc1c3ccc(C(=O)N[C@@H](CO)C(C)C)cc3nn1-2,-23,1.1%,-44%,1%
Cc1nn(C)cc1CNC(=O)c1ccc(F)cc1,-7,-1.3%,-2%,9%
CC(=O)c1cc(Cl)ccc1OCc1cccc(S(=O)(=O)N2CCOCC2)c1,.,4.2%,.,11%
Cc1ccc(S(=O)(=O)N2CCN(C(=O)COC(=O)CSc3ccccc3)CC2)c(C)c1,.,-1.2%,.,-7%
Cc1ccc(NC(=O)COC(=O)c2ccc(F)cc2Cl)c(Br)c1,-3,4.1%,1%,-7%
CCOc1ccc(C(=O)CCC(=O)Nc2cccc(S(=O)(=O)N3CCCCC3)c2)cc1,.,-1.0%,.,9%
COc1ccccc1-n1c(CNC(=O)c2ccco2)n[nH]c1=S,.,-0.1%,-2%,-4%
O=C(N/N=C/c1ccncc1)NC12CC3CC(CC(C3)C1)C2,-5,4.8%,-24%,0%
CCOC(=O)c1c(NC(=O)CN2C(=O)NC3(CCC(CC)CC3)C2=O)sc(C)c1-c1ccc(C)cc1 (stereo not drawn),2,-2.2%,-1%,3%
CCOC(=O)CNC(=O)N1CCC(CCC(=O)N(C)Cc2ccccc2)CC1,.,-2.7%,0%,-10%
CCOc1ccc(NC(=O)CN(C)C(=O)Cn2c(=O)oc3ccccc32)cc1OCC,.,-0.3%,.,-3%

# Arranged by the number under Rango dissoc inh (descending): three of the compounds above.
SMILES,GLA inh pH 4.5,Rango-impB inh,miR-21 FLuc,Rango dissoc inh
O=C(O)CCCC(=O)NCCc1ccncc1,-7,-5.5%,-3%,7%
CCOC(=O)CNC(=O)N1CCC(CCC(=O)N(C)Cc2ccccc2)CC1,.,-2.7%,0%,-10%
Cc1ccc(S(=O)(=O)N2CCOCC2)cc1C(=O)N1CC(C)OC(C)C1 (stereo not drawn),.,6.1%,.,-14%

# The results go on.
SMILES,GLA inh pH 4.5,Rango-impB inh,miR-21 FLuc,Rango dissoc inh
O=C(OCc1cc2ccccc2[nH]c1=O)c1ccccn1,3,3.5%,0%,4%
CC(=O)N1CCN(c2ccc(NCc3ccc(F)cc3)cc2)CC1,7,0.0%,0%,35%
NC(=O)c1c(/N=C/c2cccs2)sc2c1CCCC2,2,-6.6%,-18%,2%
Cc1ccc(C(C)NC(=O)Cc2cccs2)c(C)c1 (stereo not drawn),.,0.4%,-6%,-6%
CC1(NC(=O)N2CCCCC2)CCS(=O)(=O)C1 (stereo not drawn),-3,1.8%,0%,?
COc1ccc(CC(=O)NNC2=Nc3cccc4cccc2c34)cc1OC,-2,?,-5%,-27%
CCOC(=O)c1ccc(NC(=S)NCCCN2CCCC2=O)cc1,4,1.0%,-1%,18%
COc1ccc(C(CNC(=O)C(C)Oc2ccc(Br)cc2)N2CCCC2)cc1 (stereo not drawn),.,-4.0%,.,-7%
Cc1noc(C)c1S(=O)(=O)N(CC(=O)NCc1ccccc1)c1ccc(C(C)C)cc1,.,-1.0%,-4%&-8%,-16%
CC(C(=O)NC1CCCc2ccccc21)N1CCN(Cc2ccc3c(c2)OCO3)CC1 (stereo not drawn),3,-3.0%,-2%,?
CC1Cc2ccccc2N1C(=O)CSCC(=O)O (stereo not drawn),6,-2.0%,0%,-13%
O=C(C1CCCN(Cc2nc(-c3ccc(Cl)cc3)no2)C1)N1CCOCC1 (stereo not drawn),2,?,11%,-6%
COc1ccc(OC)c2c(C)cc(N3CCCN(C)CC3)nc12,4,3.7%,-7%,-15%
COC(=O)Nc1nc2ccc(Br)cc2s1,8,-0.8%,-34%,3%
Cc1c([N+](=O)[O-])cc(C(=O)Nc2ccc3ncccc3c2)cc1[N+](=O)[O-],.,7.0%,-9%,-6%
COc1ccc(-n2c(Cc3cccn3C)nnc2SCC(=O)N2CCOCC2)cc1,8,0.1%,-8%,?
Cc1ccccc1NC(=O)Cn1nc(C)c2ccccc2c1=O,.,0.2%,-1%,-12%
CCOC(=O)C1(CCOc2ccccc2)CCN(Cc2cccs2)CC1,-5,-3.0%,3%,4%
C=CCSc1nnc(-c2cccc3ccccc23)o1,.,2.4%,.,-17%
N#C/C(=C(/O)c1ccc([N+](=O)[O-])s1)c1nc2ccccc2[nH]1,-12,-2.4%,10%,-12%
Cc1cc(C)n2nc(SCc3nc4ccccc4[nH]3)nc2n1,2,-0.1%,-19%,-6%
O=C(CCc1ccccc1)Nc1cc2c3c(c1)CCC(=O)N3CCC2,.,0.7%,.,-5%
COc1cc(CO)c(Br)cc1OCC(N)=O,8,0.4%,-2%,23%
COc1cc(/C=N/n2c(-c3cc(C)[nH]n3)n[nH]c2=S)cc(OC)c1O,-12,?,-1%,-5%
CCOC(=O)NNc1cc(C(F)(F)F)ccn1,9,1.6%,10%,2%
COCc1cc(C(C)=O)ccc1OC,8,-0.8%,-3%,17%

# Grouped by structure, those above containing a COOH group (five)
SMILES,GLA inh pH 4.5,Rango-impB inh,miR-21 FLuc,Rango dissoc inh
O=C(N[C@@H](Cc1ccccc1)C(=O)N[C@@H](Cc1ccccc1)C(=O)O)OCc1ccccc1,.,3.1%,.,1%
O=C(O)c1cc2n(n1)C(C(F)(F)F)CC(c1ccccc1)N2 (stereo not drawn),11,-2.5%,-2%,-1%
O=C(O)CCc1cc(I)c(Oc2ccc(O)c(I)c2)c(I)c1,-1,.,0%,.
O=C(O)CCCC(=O)NCCc1ccncc1,-7,-5.5%,-3%,7%
CC1Cc2ccccc2N1C(=O)CSCC(=O)O (stereo not drawn),6,-2.0%,0%,-13%

# As entered above:
# COc1cc(/C=N/n2c(-c3cc(C)[nH]n3)n[nH]c2=S)cc(OC)c1O @ miR-21 FLuc: -1%
# Cc1cc(C)n2nc(SCc3nc4ccccc4[nH]3)nc2n1 @ GLA inh pH 4.5: 2
# O=C(CCc1ccccc1)Nc1cc2c3c(c1)CCC(=O)N3CCC2 @ Rango dissoc inh: -5%
# COCc1cc(C(C)=O)ccc1OC @ GLA inh pH 4.5: 8
# COc1cc(CO)c(Br)cc1OCC(N)=O @ Rango dissoc inh: 23%

# Source: PubChem BioAssay
